# Screening data from PubChem BioAssay.
# Env fusion inh – inhibitors of HIV-1 Env-driven cell-cell fusion, primary screen, HeLa-JRFL effector, CEM21 target cells, luciferase | inhibition, % at 12.3 µM | 360,000 tested, 1.1% active | AID 651610, 2012;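 active = mean replicate inhibition score of at least 50 and every replicate individually at or above 50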;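 also: 0% = plate neutral controls and 100% = maraviroc near 300 nM; one replicate is shown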
# Yeast UUG start – modulators of yeast start codon fidelity, primary screen, whole organism, S. cerevisiae, single point, plate reader | S. cerevisiae UUG-firefly luciferase reporter, luminescence/redox ratio | activity score, % at 18.7 µM | 350,000 tested, 0.13% active;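 active = replicate mean at a twofold rise or more, about +100% in these data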;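 also: firefly luciferase made from a UUG start codon reports start codon fidelity; reporter light over untreated wells divided by growth signal over untreated wells; some hits fall short of that in this replicate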
# * marks the source's active call; other numbers are inactive results; [ ] = remark or other dose. An excerpt (hit frequency here may not be typical).
Yeast UUG start	Env fusion inh	structure
-9.8	-2.9[16.7 µM]	CCCNC(=O)N(C)C[C@@H]1Oc2ncc(-c3ccccc3)cc2C(=O)N([C@H](C)CO)C[C@H]1C
-5.1	9.0[16.7 µM]	CCCC#Cc1cnc2c(c1)C(=O)N([C@@H](C)CO)C[C@@H](C)[C@@H](CN(C)C(=O)C1CC1)O2
-4.4	4.4[16.7 µM]	CCC(=O)N[C@H]1CC[C@H](CC(=O)NCCN2CCCCC2)O[C@H]1CO
-23.3	-9.4[16.7 µM]	CNC[C@H]1Oc2ccc(NS(C)(=O)=O)cc2C(=O)N([C@H](C)CO)C[C@@H]1C
1.1	21.8[16.7 µM]	C[C@H](CO)N1C[C@H](C)[C@@H](CN(C)Cc2ccc(Cl)c(Cl)c2)OCCCC[C@H](C)Oc2ccc(NC(=O)Nc3cccc4ccccc34)cc2C1=O
-7.3	0.7[16.7 µM]	CC(=O)Nc1ccc2c(c1)C(=O)N(C)[C@H]1CC[C@H](CC(=O)NCc3ccccc3)O[C@H]1CO2
-1.3	-25.6[16.7 µM]	Cc1cccc(NC(=O)Nc2ccc3c(c2)C(=O)N(C)[C@@H]2CC[C@@H](CC(=O)O)O[C@H]2CO3)c1
22.3	-2.8[16.7 µM]	CCCC(=O)Nc1ccc2c(c1)OC[C@H](C)N(Cc1ccncc1)C[C@@H](C)[C@@H](OC)CN(C)C2=O
-17.8	5.9[16.7 µM]	C[C@@H]1CCCCO[C@@H](CN(C)C(=O)Nc2cccc3ccccc23)[C@@H](C)CN([C@H](C)CO)C(=O)c2cc(NC(=O)Nc3ccc(C(F)(F)F)cc3)ccc2O1
13.3	-13.0[16.7 µM]	COCC(=O)N(C)C[C@H]1Oc2ncc(-c3ccccc3F)cc2C(=O)N([C@@H](C)CO)C[C@H]1C
1.2	-4.3[16.7 µM]	COCC(=O)Nc1ccc2c(c1)OC[C@@H](C)N(CCc1ccccc1)C[C@H](C)[C@H](OC)CN(C)C2=O
-13.8	9.6[16.7 µM]	C[C@H]1CN([C@@H](C)CO)C(=O)c2cc(NC(=O)Nc3ccc(C(F)(F)F)cc3)ccc2O[C@@H]1CN(C)C(=O)Nc1cccc2ccccc12
5.1	34.1[16.7 µM]	C[C@@H]1CN([C@H](C)CO)C(=O)c2cc(NC(=O)NC3CCCCC3)ccc2O[C@@H](C)CCCCO[C@H]1CN(C)C(=O)C1CCCCC1
3.5	-4.3[16.7 µM]	COc1ccccc1NC(=O)N[C@H]1CC[C@@H](CC(=O)N[C@@H](C)c2ccccc2)O[C@@H]1CO
1.1	16.5[16.7 µM]	C[C@@H]1CN([C@@H](C)CO)C(=O)c2cc(NC(=O)Nc3ccc(C(F)(F)F)cc3)ccc2O[C@@H]1CN(C)Cc1ccc(C(F)(F)F)cc1
14.3	-14.3[16.7 µM]	CNC[C@H]1OCCCC[C@@H](C)Oc2ccc(NC(=O)Nc3c(C)noc3C)cc2C(=O)N([C@H](C)CO)C[C@H]1C
6.0	-7.8[16.7 µM]	C[C@@H]1CN([C@@H](C)CO)S(=O)(=O)c2ccc(C#C[C@@H](C)O)cc2O[C@H]1CN(C)C(=O)C1CCCCC1
-3.6	11.6[16.7 µM]	O=C(NCC[C@@H]1CC[C@H](NC(=O)C2CC2)[C@H](CO)O1)Nc1ccc(Cl)cc1
7.3	-2.1[16.7 µM]	C/C=C/c1ccc2c(c1)O[C@H](CN(C)C(=O)c1ccccc1F)[C@@H](C)CN([C@@H](C)CO)S2(=O)=O
-6.8	-8.3[16.7 µM]	C[C@H]1CN([C@@H](C)CO)C(=O)c2cc(C#Cc3ccccc3F)cnc2O[C@@H]1CN(C)C(=O)Cc1ccncc1

# Overlap with the part before: 2 compounds; new compounds follow.
Yeast UUG start	Env fusion inh	structure
7.3	-2.1[16.7 µM]	C/C=C/c1ccc2c(c1)O[C@H](CN(C)C(=O)c1ccccc1F)[C@@H](C)CN([C@@H](C)CO)S2(=O)=O
-6.8	-8.3[16.7 µM]	C[C@H]1CN([C@@H](C)CO)C(=O)c2cc(C#Cc3ccccc3F)cnc2O[C@@H]1CN(C)C(=O)Cc1ccncc1
-10.0	-9.4[16.7 µM]	C[C@H](CO)N1C[C@H](C)[C@H](CN(C)C(=O)Nc2ccc(F)cc2)OCCCC[C@H](C)Oc2ccc(NS(=O)(=O)c3ccc(F)cc3)cc2C1=O
-13.1	-21.1[16.7 µM]	C[C@@H]1CN([C@@H](C)CO)C(=O)c2cccc(NC(=O)Nc3ccccc3)c2O[C@H]1CN(C)C(=O)Nc1ccccc1
18.4	43.2[16.7 µM]	CCC(=O)N(C)C[C@@H]1Oc2cc(C#CCC3CCCC3)ccc2S(=O)(=O)N([C@H](C)CO)C[C@H]1C
-1.2	-3.3[16.7 µM]	CC(C)NC(=O)Nc1ccc2c(c1)C(=O)N([C@H](C)CO)C[C@H](C)[C@H](CN(C)C(=O)Nc1ccc3c(c1)OCO3)OCCCC[C@H](C)O2
-3.2	8.1[16.7 µM]	CCC(=O)N(C)C[C@@H]1Oc2cc(C#CC3CCCCC3)ccc2S(=O)(=O)N([C@@H](C)CO)C[C@@H]1C
19.9	63.7*[16.7 µM]	COc1ccc(S(=O)(=O)Nc2ccc3c(c2)C(=O)N([C@H](C)CO)C[C@@H](C)[C@H](CN(C)Cc2ccc(C(F)(F)F)cc2)OCCCC[C@@H](C)O3)cc1
-7.1	-1.4[16.7 µM]	CO[C@H]1CN(C)C(=O)c2ccc(NS(=O)(=O)c3cccc(F)c3)cc2OC[C@H](C)NC[C@H]1C
-0.9	9.1[16.7 µM]	O=C(N[C@H]1C=C[C@@H](CC(=O)N2CCN(c3ccccc3)CC2)O[C@@H]1CO)c1ccccc1
-6.1	2.8[16.7 µM]	COc1cccc(NC(=O)N[C@H]2CC[C@@H](CC(=O)NCc3ccncn3)O[C@H]2CO)c1
7.5	5.4[16.7 µM]	O=S(=O)(c1ccc2ccccc2c1)N1CCN(Cc2ccc(OCCO)cc2)CC1
2.3	-23.5[16.7 µM]	Cc1noc(C)c1S(=O)(=O)N(C)C[C@@H]1OCCCC[C@H](C)Oc2ccc(NC(=O)NC(C)C)cc2C(=O)N([C@@H](C)CO)C[C@H]1C
3.8	1.3[16.7 µM]	COCC#Cc1cnc2c(c1)C(=O)N([C@H](C)CO)C[C@@H](C)[C@@H](CN(C)S(=O)(=O)c1ccccc1)O2
-4.8	1.9[16.7 µM]	C[C@H](CO)N1C[C@H](C)[C@H](CN(C)Cc2ccc(Cl)c(Cl)c2)Oc2ccc(NC(=O)CCC(F)(F)F)cc2CC1=O
-1.4	-30.4[16.7 µM]	COc1ccc(S(=O)(=O)N(C)C[C@H]2Oc3c(NS(=O)(=O)c4ccc(F)cc4)cccc3C(=O)N([C@H](C)CO)C[C@H]2C)cc1
-8.3	16.4[16.7 µM]	CC(C)NC(=O)Nc1ccc2c(c1)C(=O)N([C@H](C)CO)C[C@H](C)[C@H](CN(C)C(=O)Nc1ccc(F)cc1)OCCCC[C@@H](C)O2
6.3	-11.5[16.7 µM]	C[C@H](CO)N1C[C@H](C)[C@@H](CN(C)C(=O)Cc2ccccc2)OCCCC[C@H](C)Oc2ccc(NC(=O)Nc3ccccc3)cc2C1=O
0.0	4.8[16.7 µM]	CC(=O)Nc1ccc2c(c1)C(=O)N(C)[C@@H]1CC[C@@H](CC(=O)NCC3CC3)O[C@@H]1CO2
-7.8	-6.8[16.7 µM]	CN(C)C(=O)C[C@H]1C[C@H]2c3cc(NC(=O)C4CCC4)ccc3O[C@H]2[C@H](CO)O1
2.3	-5.9[16.7 µM]	COc1cccc(S(=O)(=O)N(C)C[C@@H]2Oc3ncc(C#Cc4ccc(OC)c(OC)c4)cc3C(=O)N([C@H](C)CO)C[C@@H]2C)c1
9.7	-0.1[16.7 µM]	Cc1noc(C)c1NC(=O)Nc1ccc2c(c1)C(=O)N([C@H](C)CO)C[C@@H](C)[C@H](CN(C)S(=O)(=O)c1ccc(F)cc1)O2
-18.6	2.2[16.7 µM]	C[C@H]1CN([C@@H](C)CO)S(=O)(=O)c2ccc(/C=C/c3ccccc3)cc2O[C@@H]1CN(C)C(=O)Nc1cccc(F)c1
-8.0	-25.3[16.7 µM]	Cc1ccc(S(=O)(=O)N(C)C[C@H]2Oc3c(NC(=O)c4ccncc4)cccc3C(=O)N([C@H](C)CO)C[C@@H]2C)cc1
-6.1	9.0[16.7 µM]	Cc1noc(C)c1NC(=O)N[C@H]1CC[C@H](CC(=O)Nc2ccc(-c3ccccc3)cc2)O[C@H]1CO
3.5	6.8[16.7 µM]	Cc1noc(C)c1NC(=O)Nc1ccc2c(c1)CC(=O)N([C@@H](C)CO)C[C@H](C)[C@@H](CN(C)C(=O)Nc1ccc(F)cc1)O2
-4.3	5.2[16.7 µM]	CC(=O)N(C)C[C@H]1Oc2ncc(C#Cc3ccccc3F)cc2C(=O)N([C@@H](C)CO)C[C@@H]1C
6.2	-89.1[16.7 µM]	COc1ccc(NC(=O)N(C)C[C@H]2OCCCC[C@H](C)Oc3ccc(NS(=O)(=O)c4ccc(F)cc4)cc3C(=O)N([C@H](C)CO)C[C@@H]2C)cc1
-12.9	-22.6[16.7 µM]	C[C@H]1CN([C@@H](C)CO)S(=O)(=O)c2ccc(-c3cncnc3)cc2O[C@@H]1CN(C)Cc1ccncc1
4.8	19.0[16.7 µM]	COc1ccc(S(=O)(=O)N(C)C[C@@H]2Oc3ncc(-c4cccc(F)c4)cc3C(=O)N([C@H](C)CO)C[C@@H]2C)cc1
-0.5	-19.2[16.7 µM]	C[C@@H]1CN([C@H](C)CO)C(=O)c2cc(NC(=O)Nc3cccc4ccccc34)ccc2O[C@H]1CN(C)Cc1ccc(Cl)c(Cl)c1
15.0	-22.8[16.7 µM]	C/C=C/c1cnc2c(c1)C(=O)N([C@H](C)CO)C[C@H](C)[C@@H](CN(C)C(=O)NCCC)O2
5.7	-29.5[16.7 µM]	COc1ccc(NC(=O)N(C)C[C@H]2Oc3ccc(NC(=O)Nc4ccc5c(c4)OCO5)cc3CC(=O)N([C@@H](C)CO)C[C@@H]2C)cc1
1.3	-11.0[16.7 µM]	Cc1noc(C)c1NC(=O)N(C)C[C@H]1OCCCC[C@H](C)Oc2ccc(NS(=O)(=O)c3ccccc3)cc2C(=O)N([C@H](C)CO)C[C@@H]1C
-3.8	-23.2[16.7 µM]	O=C(C[C@@H]1C=C[C@@H](NS(=O)(=O)c2ccc(F)cc2)[C@H](CO)O1)NCc1ccc(Cl)c(Cl)c1
4.9	4.9[16.7 µM]	C[C@@H]1CCCCO[C@H](CN(C)C(=O)c2ccncc2)[C@H](C)CN([C@@H](C)CO)C(=O)c2cc(NC(=O)NC3CCCCC3)ccc2O1
6.4	13.6[16.7 µM]	C/C=C/c1ccc2c(c1)O[C@@H](CN(C)C(=O)NCCC)[C@@H](C)CN([C@@H](C)CO)S2(=O)=O
-16.2	-72.1[16.7 µM]	C[C@H](CO)N1C[C@H](C)[C@H](CN(C)C(=O)Nc2ccc(C(F)(F)F)cc2)OCCCC[C@H](C)Oc2ccc(NC(=O)Cc3ccccc3)cc2C1=O
2.0	-13.6[16.7 µM]	C[C@@H]1CCCCO[C@H](CN(C)Cc2ccc(C(=O)O)cc2)[C@H](C)CN([C@@H](C)CO)C(=O)c2cc(NC(=O)c3ccncc3)ccc2O1
-10.0	5.2[16.7 µM]	CCNC(=O)Nc1ccc2c(c1)C(=O)N(C)[C@@H]1CC[C@H](CC(=O)NCCN3CCCC3)O[C@@H]1CO2
-8.4	4.5[16.7 µM]	CCC(=O)Nc1ccc2c(c1)C(=O)N(C)C[C@H](OC)[C@H](C)CN(C(=O)c1ccccc1F)[C@H](C)CO2
-0.8	-6.9[16.7 µM]	CNC(=O)C[C@@H]1CC[C@@H]2[C@H](COc3ccc(NC(=O)c4ccc(F)c(F)c4)cc3C(=O)N2C)O1
-1.4	19.4[16.7 µM]	C[C@H](NC(=O)C[C@@H]1C=C[C@@H](NC(=O)C2CC2)[C@@H](CO)O1)c1ccccc1
3.1	28.1[16.7 µM]	CCC(=O)N1C[C@H](C)[C@@H](OC)CN(C)C(=O)c2cc(NC(=O)c3ccc(F)cc3)ccc2OC[C@@H]1C
14.2	-27.9[16.7 µM]	C[C@H](O)C#Cc1cnc2c(c1)C(=O)N([C@@H](C)CO)C[C@@H](C)[C@@H](CN(C)Cc1cncnc1)O2
6.3	-12.3[16.7 µM]	C[C@H]1CN([C@@H](C)CO)C(=O)c2cc(NC(=O)CCN3CCOCC3)ccc2O[C@H]1CN(C)CC1CCCCC1
5.1	4.9[16.7 µM]	Cc1ccc(S(=O)(=O)Nc2ccc3c(c2)C(=O)N([C@@H](C)CO)C[C@@H](C)[C@@H](CN(C)CC2CCCCC2)O3)cc1
-11.6	23.2[16.7 µM]	C[C@H](CO)N1C[C@H](C)[C@H](CN(C)S(=O)(=O)c2ccc(F)cc2)Oc2ncc(C#CC3CCCCC3)cc2C1=O
-10.3	-6.4[16.7 µM]	COc1ccccc1CNC(=O)C[C@H]1CC[C@H](NC(=O)CC2CC2)[C@H](CO)O1
-10.0	0.0[16.7 µM]	C/C=C/c1ccc2c(c1)O[C@H](CN(C)C(=O)C1CCCCC1)[C@@H](C)CN([C@H](C)CO)S2(=O)=O
-0.5	23.7[16.7 µM]	O=C(C[C@@H]1C[C@@H]2c3cc(NS(=O)(=O)c4ccccc4)ccc3O[C@@H]2[C@H](CO)O1)NC1CCCCC1
4.9	-15.7[16.7 µM]	O=C(C[C@@H]1C=C[C@@H](NC(=O)c2cccc(F)c2)[C@@H](CO)O1)NCCN1CCCC1

# 3 entries from above, with two lines to a compound:
# Results follow in this order: Yeast UUG start, Env fusion inh
> C[C@H]1CN([C@@H](C)CO)C(=O)c2cc(NC(=O)CCN3CCOCC3)ccc2O[C@H]1CN(C)CC1CCCCC1
    6.3, -12.3[16.7 µM]
> Cc1ccc(S(=O)(=O)Nc2ccc3c(c2)C(=O)N([C@@H](C)CO)C[C@@H](C)[C@@H](CN(C)CC2CCCCC2)O3)cc1
    5.1, 4.9[16.7 µM]
> C[C@H](CO)N1C[C@H](C)[C@H](CN(C)S(=O)(=O)c2ccc(F)cc2)Oc2ncc(C#CC3CCCCC3)cc2C1=O
    -11.6, 23.2[16.7 µM]
